Bioassay records: PubChem BioAssay, National Center for Advancing Translational Sciences (NCATS)
gsp ag: qHTS for Agonist of gsp, the Etiologic Mutation Responsible for Fibrous Dysplasia/McCune-Albright Syndrome: qHTS; gsp mutant cells, cAMP HTRF, 30 min; control for the full effect not named in the record; 340,000 compounds, 0.13% hits; Potency, µM (titrated, usually from 76.9 µM), without a hit: at the highest dose activation (cAMP increase), most hits filed as activators; active = well fitted activation curve with a large enough effect; inconclusive = small, poorly fitted or top-dose-only effect, or another doubt; inactive = no such curve, though single readings can be large or run the other way; cell line not stated here;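 further: phosphodiesterase inhibitor Ro 20-1724 added with compounds to block cAMP breakdown; potency means the concentration at half of the fitted maximal effect; nearly all actives have a fitted effect of over 60% in size; about a fifth of the inactives were tested at one dose only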
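Cells in DMEM/10% FBS with G418 were pretreated with compounds in DMSO plus […] (300 uM stock) for 30 min at 37C. cAMP was measured by HTRF (cAMP-d2 plus anti-cAMP antibody-K) after 30 min at room temperature.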
TRPML1 blocker: qHTS for Inhibitors of the Human Mucolipin Transient Receptor Potential 1 (TRPML1) | TRPML1-inducible cells, Ca2+ dye fluorescence, FDSS; stronger effect = lower value; inhibition of EC80 agonist-evoked calcium signal | activity change, negative = inhibition, % (concentration not given with the values) | 390,000 compounds, 0.02% hits; in the data active means activity change below about -50%; inconclusive means about -30% to -50%; inactive means above about -30%;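 further: stimulus is agonist 54-4 at its EC80 concentration; on the % scale 0 is the no-effect control and ±100 the full control effect; the text of the record puts the active cut at -80%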
Target sequence (Q9GZU1 whole entry, looked up): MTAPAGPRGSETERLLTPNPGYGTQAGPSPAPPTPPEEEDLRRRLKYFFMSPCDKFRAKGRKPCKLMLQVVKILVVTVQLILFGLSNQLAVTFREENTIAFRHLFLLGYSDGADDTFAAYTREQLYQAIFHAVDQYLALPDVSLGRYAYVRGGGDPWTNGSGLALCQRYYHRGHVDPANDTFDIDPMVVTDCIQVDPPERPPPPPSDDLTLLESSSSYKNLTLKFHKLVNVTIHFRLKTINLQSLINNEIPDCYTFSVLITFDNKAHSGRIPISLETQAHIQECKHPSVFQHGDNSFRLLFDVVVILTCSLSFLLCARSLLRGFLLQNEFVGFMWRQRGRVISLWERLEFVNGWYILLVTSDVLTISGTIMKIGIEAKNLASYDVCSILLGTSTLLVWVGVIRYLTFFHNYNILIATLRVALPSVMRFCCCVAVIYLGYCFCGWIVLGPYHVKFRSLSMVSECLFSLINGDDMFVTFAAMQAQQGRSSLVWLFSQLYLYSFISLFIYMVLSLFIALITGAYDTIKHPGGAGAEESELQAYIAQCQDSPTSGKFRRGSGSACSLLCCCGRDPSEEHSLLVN
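Calcium fluorescence in TRPML1-DL cells induced overnight with Tet: a 110 s read after compound pin addition, then a 110 s antagonist read after challenge with 54-4 at 4 uM final (EC80).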
Menin MLL FP FL: qHTS Assay for Inhibitors Targeting the Menin-MLL Interaction in MLL Related Leukemias: Competition With Fluorescein Labeled MLL-derived Peptide | Fluorescence polarization, fluorescein-MLL peptide displacement from menin | FP activity change, % at 61.4 µM | 290,000 tested, under 10 active; inconclusive = falling polarisation curve, or a change in total fluorescence; inactive = total fluorescence flat and polarisation flat or rising; no compound was filed as active; the % refers to the polarisation; negative = inhibition;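 further: % of control where 0% means no effect; inhibitors lower the polarisation; unlabelled MLL peptide was the positive control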
TRPML1 agonist: qHTS for Agonists of the Human Mucolipin Transient Receptor Potential 1 (TRPML1); Mucolipin-1 (Homo sapiens), Q9GZU1; TRPML1-expressing cells, Ca2+ dye fluorescence, FDSS; host cell line not named in the record; reference of the full effect not given here; activation, % (no concentration beside the values); 410,000 compounds, 0.12% hits; in the data active = activation above about 50%; inconclusive = about 30% to 50%; inactive = below about 30%; further: 0% is about no effect; the text of the record puts the active cut at 80%
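Cells: TRPML1-DL, 1X Tet inducer, ~16 h at 37 degrees C/5% CO2. Dye: ABD Ca8 no-wash + quencher, 45-90 min RT. Read: 10 s baseline, compound add, 110 s agonist phase; 54-4 EC80 (4uM final), 110 s antagonist phase.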
gsp antagonist: qHTS for Antagonists of gsp, the Etiologic Mutation Responsible for Fibrous Dysplasia/McCune-Albright Syndrome: qHTS; gsp-mutant cells, cAMP HTRF, 30 min; control for the full effect not named in the record; Potency, µM (doses to about 76.9 µM), for the others: at the top dose activity change, negative = inhibition, actives largely listed as inhibitors; 340,000 compounds, 0.4% hits; AID 624288, 2012; active = falling curve of any shape with a large fitted effect; inconclusive = falling curve, mostly with a smaller effect; inactive = flat or rising curve; cell line not stated here;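 further: intracellular cAMP measured with PDE inhibitor Ro 20-1724 present during compound exposure; potency means the concentration at half of the fitted maximal effect; on the % scale 0 is the no-effect control and ±100 the full control effect; nearly all actives have a fitted effect of over 65% in size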
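Measurement of cellular cAMP by homogeneous time-resolved fluorescence following a 30 min compound exposure at 37C. The PDE inhibitor […] was present throughout; the assay buffer was DPBS with 0.05% BSA and 0.005% Tween 20.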
ClpP mod: qHTS Assay for Activators of ClpP; purified B. subtilis ClpP, FRET peptide cleavage, 20 min; Potency, µM (doses to about 57.5 µM), for inactives: at the top dose activity change, negative = active; 340,000 compounds, 1.9% hits; AID 651965, 2013; active = well fitted falling curve with a large enough effect; inconclusive = small, poorly fitted or top-dose-only effect; inactive = no such curve, though single readings can be large or run the other way; further: potency means the concentration at half of the fitted maximal effect; the source files actives as falling curves though it sought activators and does not explain the sign; nearly all actives have a fitted effect of over 65% in size; many hits overshoot -100%
Target sequence (P80244 whole entry, looked up): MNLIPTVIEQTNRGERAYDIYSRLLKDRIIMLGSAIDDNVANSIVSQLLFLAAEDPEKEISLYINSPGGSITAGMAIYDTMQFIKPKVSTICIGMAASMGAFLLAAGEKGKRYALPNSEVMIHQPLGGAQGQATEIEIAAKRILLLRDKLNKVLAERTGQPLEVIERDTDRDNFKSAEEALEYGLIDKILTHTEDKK
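Buffer: 100 mM Tris/HCl pH8, 100 mM KCl, 0.05% low protease BSA, 2.5% glycerol, 0.01% Tween-20. ClpP 10 microg/mL final; 20 min RT; delta FRET normalized to ADEP and DMSO controls.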
* = called active by the depositor; ? = inconclusive; nt = not tested or not shown; & = joins results of further samples; [ ] = another dose, or the depositor's remark.

Each structure is followed by: gsp ag	TRPML1 blocker	Menin MLL FP FL	TRPML1 agonist	gsp antagonist	ClpP mod
CCOC(=O)C1CCN(C(c2cc3ccc(C)c(C)c3[nH]c2=O)c2nnnn2C2CCCCC2)CC1 (stereo unspecified)
    ?	-5	-1.6	0.3	-5%	-7.5%
COC(=O)/C=C/C(=O)Nc1cccc(C(F)(F)F)c1
    -29%	-4	4.4	0.1	11%	-1.5%
O=C(COc1cccc2ccccc12)NNC(=O)C1CCCO1 (stereo unspecified)
    ?	7	-5.1	-0.6	4%	-0.4%
CC(C)NC(=O)CCn1c(=S)oc2ccccc21
    -15%	-16	1.9	0.2	1%	-1.1%
CC(C)OCCCNC(=O)c1cn(C)c2ccc(S(=O)(=O)N(C)C3CCCCC3)cc2c1=O
    ?	13&6	nt	0.2&-1.0	6%	1.6%&1.2%
CC(C)C(=O)N1C2CCC1CC(O)(c1ccc(F)cc1)C2 (stereo unspecified)
    0%	-2	-1.8	-0.4	10%	0.2%
COc1ccc(NC(=O)C(NC(=O)c2ccc(C)cc2)c2ccccc2)cc1 (stereo unspecified)
    2%	-21	-4.2	1.6	-18%	-0.9%
Cc1ccc(/C=N/N2C(=S)SC(C)(C)C2N(O)C(=O)Nc2ccc([N+](=O)[O-])cc2)cc1 (stereo unspecified)
    -32%[inhibitor]	-6	1.2	2.5	4%	2.8%
COc1cccc(-n2c(SCC(=O)NCc3cccs3)nc3ccccc3c2=O)c1
    -3%[15.4 µM]	57	8.6	2.2	-6%	-1.7%
Cc1csc(NC(=O)CSc2nnc(CCNC(=O)c3cccs3)n2C)n1
    14%	14	1.8	-0.1	14%	0.0%
O=C(O)CCS(=O)(=O)c1ccc(-c2ccccc2)cc1
    2%	11	1.2	-0.2	-4%	-8.4%
CCOc1ccc(CC(=N)C2=C(O)CC(C)(C)CC2=O)cc1OCC
    -4%[15.4 µM]	12	-1.8	-0.6	11%	0.0%
Cc1ccc(S(=O)(=O)N(C)Cc2nc(-c3ccncc3)no2)cc1
    ?	-14	-2.9	-0.2	-22%	-0.5%
O=S(=O)(NCCc1nnc2ccc(SCc3c(F)cccc3Cl)nn12)c1ccccc1
    nt	14	nt	2.1	nt	-19%
CN1C(=O)[C@H]2[C@@H](/C=C/c3ccccc3)N3C(=O)CN(Cc4ccc(-c5ccccc5)cc4)C(=O)[C@@]3(C)[C@H]2C1=O
    -26%	5	nt	0.2	-14%	-0.7%
CCC(CO)Oc1cc(NC(=O)c2ccc(N)cc2)c2ncn(C(C)C)c2c1 (stereo unspecified)
    -9%	8	nt	-0.7	-9%	0.9%
CC(=O)c1ccccc1OC(=O)CCN1C(=O)c2ccccc2C1=O
    0%	5	-4.3	-0.2	-2%	nt
CN(CC(=O)Nc1ccccc1Cl)C(=O)COC(=O)CNC(=O)c1ccc(Br)o1
    -11%	4	nt	-1.0	3%	0.9%
O=C(Nc1cccc(O)c1)C1CC(c2c(F)cccc2Cl)=NO1 (stereo unspecified)
    -17%	nt	0.0	nt	0%	-0.1%
CCC(C)NCCOCCOc1ccccc1-c1ccccc1 (stereo unspecified)
    -34%[inhibitor]	-7	3.1	0.6	8%	-2.2%
Cc1ccc2c(c1)N(C(=O)CCC(=O)N1CCOCC1)CC(C)O2 (stereo unspecified)
    24%	-11	-1.8	-0.4	11%	1.1%
Cc1ccc(S(=O)(=O)NCCc2ccncc2)cc1[N+](=O)[O-]
    -1%	-15	3.0	2.4	8%	nt
CCCNC(=O)C(Cc1ccccc1)NS(=O)(=O)c1cccc2nsnc12 (stereo unspecified)
    -3%	-24	1.3	0.1	0%	1.4%
Cc1ccccc1-c1nc(CS(=O)(=O)CC(=O)NC(C)c2ccccc2)c(C)o1 (stereo unspecified)
    15%	-16&4	-1.1	3.4&-1.3	-9%	-1.9%&-5.3%
CCN(CC(=O)Nc1ccc(NC(C)=O)cc1)C(=O)/C=C/c1ccco1
    ?	-8	nt	0.8	11%	-0.5%
Cc1cccc(C)c1NC(=O)Cn1c(=O)n(Cc2ccc3c(c2)OCO3)c(=O)c2oc3ccccc3c21
    nt	-4	nt	0.1	nt	-0.4%
CCOC(=O)c1ccc(NC(=O)CSc2nc(N)c(NC(=O)c3ccc(Br)o3)c(=O)[nH]2)cc1
    13%[15.4 µM]	9	nt	-0.1	14%	1.6%
CCN(C(=O)/C=C/c1ccc(OC)cc1)C1CCCCC1
    0%[15.4 µM]	-13	11	0.6	-16%	0.2%
CC(=O)Nc1cccc(NC(=O)CS(=O)(=O)c2cn(CC(=O)N(C(C)C)C(C)C)c3ccccc23)c1
    ?	15	nt	-0.6	-2%	1.0%
CC(C)(CO)NCc1ccccc1OCC(=O)Nc1ccccc1
    8%	1	0.9	0.4	8%	-18%
CCOC(=O)c1c(-c2ccc(C)cc2)csc1NC(=O)CCSc1nnc2ccccn12
    31%	26	4.7	-0.9	-5%	?
CCCN(C(=O)c1cn(CC(C)C)c(=O)c2cc(OC)c(OC)cc12)c1cccc(C)c1
    nt	-8	nt	-0.8	nt	0.4%
CCOC(=O)C1=C(N)n2c(s/c(=C\c3cccnc3)c2=O)=C(C#N)C1c1cccnc1 (stereo unspecified)
    0%	nt	nt	nt	-10%	-2.0%
CCCC(=O)Nc1ccc(C(=O)NNC(=S)NC(=O)c2ccc(Br)o2)cc1
    14%[15.4 µM]	9	-0.1	-0.5	-13%	nt
Cc1noc(C)c1S(=O)(=O)Nc1ccc(C(=O)Nc2ccc(Br)cc2)cc1
    nt	-18	nt	0.9	nt	-13%
CC(Cc1cccs1)NC(=S)Nc1ccc(Cl)c(Cl)c1 (stereo unspecified)
    ?	2	-3.9	0.1	?	nt
Cc1cc(C)c(S(=O)(=O)N2CCC(C(=O)NCc3ccc(Cl)cc3Cl)CC2)c(C)c1
    0%	18	1.5	1.2	-3%	-2.3%
O=C(NCc1n[nH]c(=S)n1-c1ccc(Cl)c(Cl)c1)c1cccs1
    10%[15.4 µM]	-5	-1.7	-0.4	-7%	nt
CCC1Cc2c(nc(N)c3c(N)nc(N4CCCCC4)c(C#N)c23)O1 (stereo unspecified)
    13%[15.4 µM]	8	-1.9	0.0	-17%	nt
CCCCN(C)C(=O)c1cn(CC)c2nc(C)ccc2c1=O
    -55%[inhibitor]	-7	5.9	0.6	1%	-25%

Record cards, as listed above.
CCCNC(=O)C(Cc1ccccc1)NS(=O)(=O)c1cccc2nsnc12 (stereo unspecified) is listed as gsp ag: -3%; TRPML1 blocker: -24; Menin MLL FP FL: 1.3; TRPML1 agonist: 0.1; gsp antagonist: 0%; ClpP mod: 1.4%
CCCC(=O)Nc1ccc(C(=O)NNC(=S)NC(=O)c2ccc(Br)o2)cc1 is listed as gsp ag: 14%[15.4 µM]; TRPML1 blocker: 9; Menin MLL FP FL: -0.1; TRPML1 agonist: -0.5; gsp antagonist: -13%; ClpP mod: nt

Going on with the list.
Each structure is followed by: gsp ag	TRPML1 blocker	Menin MLL FP FL	TRPML1 agonist	gsp antagonist	ClpP mod
COc1ccc(S(=O)(=O)N2CCCCCC2)cc1C(=O)N(C)CC(=O)Nc1cc(C)ccc1C
    -6%	17	nt	2.4	-23%	-0.1%
CCOC(=O)COc1cc2c3c(c(=O)oc2cc1C)CCCC3
    -61%[inhibitor]	4	-0.1	0.1	2%	-26%
O=C(Nc1ccccc1)C1=C[C@H](c2ccc3c(c2)OCO3)C[C@H](OCc2ccc(CO)cc2)O1
    nt	-4	12	2.4	-17%	-10%
Cc1c(C(=O)Nc2ccc(F)cc2)oc2ccc(S(=O)(=O)N3CC(C)CC(C)C3)cc12 (stereo unspecified)
    4%	-6	4.4	0.1	-10%	282%
COc1ccccc1-n1cc(-c2ccccc2)c2c(=S)nc[nH]c21
    -9%	15	1.7	0.0	-4%	-3.4%
COC(=O)c1ccccc1NC(=O)C1CCCC1
    1%	12	4.7	0.0	1%	-27%
CCN1CCN(C(c2cccc(F)c2)c2c(O)cc(C)n(CCOC)c2=O)CC1 (stereo unspecified)
    nt	2	nt	1.2	nt	0.9%
O=C(NCc1cccnc1)c1cccnc1-c1nc2ccccc2s1
    12%	-7	-2.5	-0.5	12%	-25%
Cc1cccc(C)c1OCCCCCNCCO
    -3%	-2	8.0	0.0	8%	-3.5%
Cc1cc(C(F)(F)F)nc(SCC(=O)Nc2c(C)n(C)n(-c3ccccc3)c2=O)n1
    ?	14	6.4	-0.4	5%	nt
Cc1c(Cl)c(=O)n2c(=O)c(Cl)c(C)n12
    ?	5	?	4.1	5%	nt
CC1(C)CC(=O)C(C=NC2CCCCC2)=C(O)C1
    -22%	-15	0.6	-1.0	8%	-12%
O=C(N1CCOCC1)N1CCC(n2nnc3cc(F)ccc32)CC1
    8%	-6	-28	2.0	3%	0.1%
COC(=O)CCCC1=CC2=C(c3ccccc3)C(=O)C(C)(OC(=O)C3CCCC3)C(=O)C2=CN1CCCCO (stereo unspecified)
    -28%	13	-1.0[11.7 µM]	0.3	3%	0.8%
COc1cccc(N2CCN(S(=O)(=O)c3ccc4c(c3)CC(C)N4C(=O)C3CC3)CC2)c1 (stereo unspecified)
    ?	12	-5.1	7.2	-2%	-0.3%
CCC(C)Nc1nc2c(c(=O)[nH]c(=O)n2C)n1CCOc1ccccc1 (stereo unspecified)
    -27%	nt	0.0	nt	?	-0.1%
COc1ccc(/C=C2\C(=O)ON=C2c2ccccc2)cc1
    -6%	-15	-1.1	-0.2	-5%	nt
Cc1ccc(C(=O)Nc2ccccc2C(=O)NCC2CCCO2)cc1 (stereo unspecified)
    9%	5	-0.2	-0.5	-4%	-1.1%
O=C(Nc1nnc([C@H]2C[C@H](O)[C@@H](CO)O2)s1)Nc1ccccc1C(F)(F)F
    nt	-1	nt	0.0	nt	-3.2%
Cc1ccc(C)c(Cn2c3ccccc3c3cnn(CC(=O)NCc4ccccn4)c(=O)c32)c1
    7%	7	nt	0.2	5%	-26%
